Sa growth inh – blocks Staphylococcus aureus growth. S. aureus RN4220 growth, OD600, 20 h, 42 °C; stronger effect = lower value. relative growth, % (concentration not given with the values). 170,000 compounds, 0.53% hits. AID 720641;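 active = growth at 42 °C up to 50% and 20 or more points under that at 30 °C, or under 10% at both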;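 note: 300 nL library stock went into each well; scaled to the means of positive and negative controls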
HCMV UL50-53 inh – disrupts HCMV UL50-UL53 complex binding; 190,000 compounds, 0.15% hits; inhibition, % (no concentration beside the values); AID 1918969; HTRF UL50-UL53 interaction, normalized percent inhibition;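 active = both replicates at 50% or more, plus weaker picks with an unusually low signal ratio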;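 note: stock transfer was 100 nL into about 20 µL; 0% = negative control wells and 100% = wells with untagged competitor protein; inactives centre near -12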
GIV Gai3 FP – blocks GIV peptide binding to rat Galpha-i3; AID 1224905; percent of control (FP), % (concentration not given with the values); Galpha-i3/FITC-GIV peptide fluorescence polarization, 90 min; stronger effect = lower value; scaled: aluminum fluoride 0%, vehicle 100%; 210,000 compounds, 0.42% hits;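 active = replicate mean at 85% of control or lower, very high polarization wells dropped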;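 note: wells of about 15 µL received 100 nL stock; the first replicate is given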
Target sequence (P08753 whole entry, looked up): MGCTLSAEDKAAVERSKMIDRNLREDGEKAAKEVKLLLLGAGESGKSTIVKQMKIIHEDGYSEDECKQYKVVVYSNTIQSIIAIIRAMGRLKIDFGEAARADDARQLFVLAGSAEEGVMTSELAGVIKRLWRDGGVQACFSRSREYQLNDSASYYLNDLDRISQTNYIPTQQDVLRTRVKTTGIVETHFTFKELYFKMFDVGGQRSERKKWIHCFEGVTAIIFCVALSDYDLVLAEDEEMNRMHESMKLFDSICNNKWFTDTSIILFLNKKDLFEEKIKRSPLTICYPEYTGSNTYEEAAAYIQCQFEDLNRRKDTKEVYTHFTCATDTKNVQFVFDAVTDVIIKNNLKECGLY
Sa growth inh second temp – also measured in Sa growth inh; calls as there; relative growth, %; measured here: growth at 30 °C;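 optical density after 20 h as mean of two plates; 100% = untreated growth and lower means inhibition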
* hit, by the source's call; . = not tested or not shown; & = joins results of further samples.

SMILES	Sa growth inh	Sa growth inh second temp	HCMV UL50-53 inh	GIV Gai3 FP
Cc1cccc(N2CCN(C(=O)C3C4C=CC(O4)C3C(=O)O)CC2)c1C (stereo not drawn)	71	79	-4	101
COc1cccc(N2CCN(C(=O)CCSCc3ccccc3F)CC2)c1	95	67	.	101
Cc1c(C)c(C)c(S(=O)(=O)NC(C)(C)C)c(C)c1C	95	92	-21	99
CCOc1ccc(CNC(=O)CSc2nnc(C)c3c(C)n(-c4ccccc4)nc23)cc1	118	93	.	109
CCc1ccc(-c2nn(-c3ccccc3)cc2/C=C2\SC(N)=NC2=O)cc1	90	91	-14	.
Cc1cc(Br)ccc1NC(=O)CCNS(=O)(=O)c1cccc2nonc12	112	93	-59	104
N#CC1(NC(=O)Cn2cc(Br)ccc2=O)CCCC1	100	93	-7	.
O=S1(=O)c2ccccc2N(Cc2cccc(C(F)(F)F)c2)c2ccccc21	91	89	.	98
O=C(CCSc1nc(-c2ccco2)cc(C(F)(F)F)n1)NCCN1CCOCC1	92	81	-68	101
CSc1n[nH]c(-c2cccs2)n1	95	108	-1	97
CC(C)(COC(=O)Nc1ccc(Cl)cc1)n1cccc1	75	77	-22	100
CCOc1ccc(CCNC(=O)C2COc3ccccc3C2)cc1OCC (stereo not drawn)	122	95	.	101
Cc1cc(C(=O)Nc2cccc3ncccc23)no1	70	88	-36	.
c1cncc(-c2nnc3sc(-c4csc5c4CCCC5)nn23)c1	.	.	-11	101
COc1cccc(NC(=O)CN2C(=O)C(C)(C)c3cc(S(=O)(=O)N4CCCC4)ccc32)c1	.	.	-26	104
CC(C)c1ccc(N(CC(=O)Nc2ccc3c(c2)n(C)c(=O)n3C)S(C)(=O)=O)cc1	104	75	.	101
CCCCn1c(=O)c2sccc2n2c(SCc3ccccc3)nnc12	.	.	7	105
CC1C(=O)CCN(C(C)C)C1C (stereo not drawn)	116	92	-9	100
O=C(c1ccccc1)c1cccc(NC(=O)c2cccnc2Oc2ccccc2)c1	109	82	-4	103
Cc1ccc(-n2c(=S)[nH]c3sc4c(c3c2=O)CCC4)cc1	.	.	-8	103
Cc1cc(NC(=O)c2ccccc2F)ccc1-c1nc2ccccc2s1	98	96	.	91
O=S(=O)(c1ccc(Cl)cc1)c1nc(-c2ccccc2Br)oc1NCc1ccccc1	105	79	-48	107
O=C(CN1C(=O)C2CCCCN2c2ccc(C(=O)N3CCCC3)cc21)N1CCc2ccccc2C1 (stereo not drawn)	.	.	-26	105
CC1CCN(C(=O)C2CCC(Cn3c(=O)c4sccc4n(CC(N)=O)c3=O)CC2)CC1 (stereo not drawn)	.	.	2	98
COc1cc(C2CC(=O)C3=C(C2)Nc2onc(C)c2C3c2ccc(Br)cc2)ccc1O (stereo not drawn)	.	.	-13	104
COc1ccc(CNc2ccccc2)cc1Br	76	73	-6	.
Cc1nn(C2CCS(=O)(=O)C2)c(Cl)c1/C=C/C(=O)OCCN1C(=O)c2ccccc2C1=O (stereo not drawn)	87	90	-29	.
CC1CC1C(=O)Nc1ccccc1C#N (stereo not drawn)	95	113	11	106
CCOC(=O)c1cn[nH]c1NC(=S)Nc1ccccc1	93	76	-6	113
Cc1cc(NC(=O)CSc2ccccn2)no1	93	89	7	110

7 structures from above, arranged by SMILES length, ascending.
SMILES	Sa growth inh	Sa growth inh second temp	HCMV UL50-53 inh	GIV Gai3 FP
CC1CC1C(=O)Nc1ccccc1C#N (stereo not drawn)	95	113	11	106
COc1ccc(CNc2ccccc2)cc1Br	76	73	-6	.
CCOC(=O)c1cn[nH]c1NC(=S)Nc1ccccc1	93	76	-6	113
CCCCn1c(=O)c2sccc2n2c(SCc3ccccc3)nnc12	.	.	7	105
O=C(c1ccccc1)c1cccc(NC(=O)c2cccnc2Oc2ccccc2)c1	109	82	-4	103
COc1cc(C2CC(=O)C3=C(C2)Nc2onc(C)c2C3c2ccc(Br)cc2)ccc1O (stereo not drawn)	.	.	-13	104
CC1CCN(C(=O)C2CCC(Cn3c(=O)c4sccc4n(CC(N)=O)c3=O)CC2)CC1 (stereo not drawn)	.	.	2	98

(continued)
SMILES	Sa growth inh	Sa growth inh second temp	HCMV UL50-53 inh	GIV Gai3 FP
CCCn1nc2ccccc2c1P(=NC(=O)Nc1cccc(Cl)c1)(N1CCOCC1)N1CCOCC1	68	91	-11	.
CCn1c2c(c(=O)[nH]c1=O)C(c1ccc(OC)cc1)C1=C(N2)c2ccccc2C1=O (stereo not drawn)	80	82	-240	103
O=C1N=C(c2cccc(O)c2)c2ccccc2Nc2ccccc21	99	131	1	.
Cc1ccc(NC(=O)Nc2nnc(-c3cc4ccccc4o3)o2)cc1C	.	.	-29	106
CCOc1ccc(-c2[nH]nc3nc(-c4cccc(OC)c4)cc(C(=O)O)c23)cc1	.	.	-12	105
CC1CN(S(=O)(=O)c2ccc(C(=O)NC3=NCCS3)cc2)CC(C)O1 (stereo not drawn)	101	98	-8	.
CC(=O)N1CSCC1C(=O)O (stereo not drawn)	88	85	-23	101
Cc1ccc2c(c1)NCC(C(=O)NC1CCCCC1)O2 (stereo not drawn)	129	89	-16	100
O=C(CN1CCc2ccccc2C1)NCc1ccc(F)cc1	84	80	-18	104
Cc1ccc(-n2cc3cnnc(-c4ccccc4)c3n2)cc1	89	92	-36	.
Cc1ccc(S(=O)(=O)/C(C#N)=C\c2cn(-c3ccccc3)nc2-c2cc3ccccc3o2)cc1	91	83	-37	107
N#Cc1ccc(-c2cccnc2)[nH]c1=O	110	102	-22	111
O=C(O)CCS(=O)(=O)c1ccc(-c2ccccc2)cc1	102	79	-5	93
O=C(C1CCN(c2nc3ccccc3n3cccc23)CC1)N1CCN(c2ccccc2)CC1	115	83	-8&-14	105&105
Cc1ccc(N2CSCC2=O)cc1	.	.	0	104

The closing 7 compounds of the part above come first, to join the parts.
SMILES	Sa growth inh	Sa growth inh second temp	HCMV UL50-53 inh	GIV Gai3 FP
O=C(CN1CCc2ccccc2C1)NCc1ccc(F)cc1	84	80	-18	104
Cc1ccc(-n2cc3cnnc(-c4ccccc4)c3n2)cc1	89	92	-36	.
Cc1ccc(S(=O)(=O)/C(C#N)=C\c2cn(-c3ccccc3)nc2-c2cc3ccccc3o2)cc1	91	83	-37	107
N#Cc1ccc(-c2cccnc2)[nH]c1=O	110	102	-22	111
O=C(O)CCS(=O)(=O)c1ccc(-c2ccccc2)cc1	102	79	-5	93
O=C(C1CCN(c2nc3ccccc3n3cccc23)CC1)N1CCN(c2ccccc2)CC1	115	83	-8&-14	105&105
Cc1ccc(N2CSCC2=O)cc1	.	.	0	104
Cc1noc2c1C(c1cccnc1)C1=C(CCCC1=O)N2 (stereo not drawn)	95	89	-12	.
S=C(Nc1ccccc1)N1CCCCCC1	90	87	-15	99
COC(=O)c1sccc1NC(=O)N1CCCC1c1ccc(F)cc1 (stereo not drawn)	.	.	-6	95
CCn1c(N)c(C(=O)c2cccc(S(=O)(=O)N(C)C3CCCCC3)c2)c(=O)[nH]c1=O	90	100	1	.
CC1=CC(C)(C)N(Cc2ccccc2)c2cc(C)ccc21	92	76	5	103
CN(/C=C/C=[N+](C)c1ccccc1)c1ccccc1	73	84	-14	.
CCOc1ccc(N(CC(=O)Nc2ccc(OC)cc2)S(=O)(=O)c2ccc(Cl)cc2)cc1	124	94	.	104
CC1(C(=O)NC2CCCCC2)Cn2c(cc3sccc32)C(=O)N1C1CCCCC1 (stereo not drawn)	.	.	-13	95
O=C(Nc1nsc(-c2ccccc2)n1)c1ccc(F)cc1	103	63	-12	100

Five records drawn at random from those above:
SMILES	Sa growth inh	Sa growth inh second temp	HCMV UL50-53 inh	GIV Gai3 FP
CN(/C=C/C=[N+](C)c1ccccc1)c1ccccc1	73	84	-14	.
Cc1noc2c1C(c1cccnc1)C1=C(CCCC1=O)N2 (stereo not drawn)	95	89	-12	.
COC(=O)c1sccc1NC(=O)N1CCCC1c1ccc(F)cc1 (stereo not drawn)	.	.	-6	95
CC1(C(=O)NC2CCCCC2)Cn2c(cc3sccc32)C(=O)N1C1CCCCC1 (stereo not drawn)	.	.	-13	95
CCOc1ccc(N(CC(=O)Nc2ccc(OC)cc2)S(=O)(=O)c2ccc(Cl)cc2)cc1	124	94	.	104

Screening data: PubChem BioAssay, ICCB-Longwood Screening Facility, Harvard Medical School
